Source: PubChem
H5N1 CPE: antiviral screen in MDCK cells, H5N1 avian flu; cytopathic effect, luminescence, 72 h; active compounds read high; no value below 0 was filed and about half of the inactive calls have no number; reference of the scale not given here; inhibition, % at 50 µM; 96,000 tested, 0.07% active; in the data active = inhibition above about 25%
An asterisk follows results filed as active; i = inactive.

| Structure | H5N1 CPE |
| --- | --- |
| Cc1ccc(CNC(=O)C(Cc2ccccc2)NS(=O)(=O)c2cccs2)cc1 (stereo not drawn) | i |
| CC(C)Oc1ccc(C2C(C#N)=C(N)Oc3c2c(=O)oc2ccccc32)cc1 (stereo not drawn) | 0.1 |
| Cc1ccc2c(c1)nnn2C1CCN(S(=O)(=O)c2ccc(C(=O)NC3CCCC3)cc2)CC1 | i |
| CSc1nc(N)nc(SCC(=O)c2ccccc2)c1C#N | 2.3 |
| Cc1ccc(NC(=O)CCn2nc(C)cc2C)c(C)c1 | 0.5 |
| CCOC(=O)c1cc(=O)n2[nH]c(-c3ccc(C)cc3)cc2n1 | 0.3 |
| COc1ccccc1CN(Cc1cc2cc3c(cc2[nH]c1=O)OCCO3)Cc1nnnn1Cc1ccco1 | i |
| CC(=O)Nc1ccc(C(=O)NC(CC(=O)O)c2ccc(Cl)cc2)cc1 (stereo not drawn) | 0.7 |

The listing continues:
| Structure | H5N1 CPE |
| --- | --- |
| [2H]c1c([2H])c([2H])c(-c2nc(N3CCCCCC3)sc2C(=O)c2ccccc2)c([2H])c1[2H] | 8.5 |
| COCCCNC(=O)Cn1ncc2ccsc2c1=O | 0.9 |
| O=C(Nc1nc2nc(-c3ccccc3)cc(=O)n2[nH]1)c1ccccc1 | i |
| Cc1csc(NC(=O)c2cccs2)n1 | 2.8 |
| Cc1ccc(C)c2c3c([nH]c12)-c1nonc1CC3 | 1.0 |
| O=C(Cc1n[nH]c(=O)[nH]c1=O)N/N=C/c1ccccc1 | i |
| COc1ccc2cc(C(c3nnnn3CC3CCCO3)N3CCOCC3)c(=O)[nH]c2c1 (stereo not drawn) | 1.1 |
| Cc1cccc(NC(=O)c2ccc(N3CCCCC3)c([N+](=O)[O-])c2)n1 | i |

The list continues.
| Structure | H5N1 CPE |
| --- | --- |
| O=C(COC(=O)c1cnccn1)c1ccc(OC(=O)c2ccccc2)cc1 | i |
| CCC(Sc1nc2c(cnn2-c2ccc(Cl)cc2)c(=O)[nH]1)C(=O)OC (stereo not drawn) | 1.9 |
| CCOC(=O)Cn1nnc2c(sc3nc4c(c(-c5ccc(Cl)cc5)c32)CCC4)c1=O | i |
| O=[N+]([O-])c1ccc(N/N=C/c2c[nH]c3ccccc23)c(S(=O)(=O)Nc2ccc(Cl)cc2)c1 | i |
| Cc1cc(C)cc(NC(=O)Nc2ccc3c(c2)N(C)C(=O)CS3)c1 | i |
| CCOc1cc(S(=O)(=O)NCCc2cccc(C)c2)c(OCC)cc1-n1cnnn1 | 1.5 |
| C=CCc1cccc2cc(C(=O)N3CCN(C(=O)c4ccco4)CC3)c(=O)oc12 | 0.3 |
| Cc1ccc(C)c(NC(=O)CCN2CCOCC2)c1 | i |

Carrying on:
| Structure | H5N1 CPE |
| --- | --- |
| Cc1ccc(S(=O)(=O)CC2CSc3nc4ccccc4n32)cc1 (stereo not drawn) | 2.2 |
| O=C(c1ccc(NC2=NC3CS(=O)(=O)CC3S2)cc1)N1CCc2ccccc2C1 (stereo not drawn) | 0.5 |
| COc1ccc(-c2nc(NC(=O)CSc3nnc4ccccn34)ns2)cc1 | 4.1 |
| CCC(=O)c1ccc(OCC(O)CN2CCN(S(=O)(=O)N3CCCCC3)CC2)cc1 (stereo not drawn) | i |
| CCOc1ccc(Nc2oc(-c3cccs3)nc2C#N)cc1 | 0.4 |
| O=C(CCNS(=O)(=O)c1ccccc1F)NCc1ccc2c(c1)OCO2 | 0.6 |
| O=C(NCCN1CCOCC1)c1cnn2c(-c3ccccc3)cc(-c3ccccc3)nc12 | i |
| O=C(NCCN1CCOCC1)c1ccc(=O)oc1 | 0.9 |

Next part
| Structure | H5N1 CPE |
| --- | --- |
| COc1cccc(-n2c(Cc3cc(=O)[nH]c(=O)[nH]3)nnc2SCC(=O)Nc2ccccc2)c1 | i |
| Cc1nn(C(=O)c2cccc([N+](=O)[O-])c2)c(C)c1Sc1ccccc1 | i |
| CCC/C(=N\NC(=O)c1csc(C)c1C)c1cccs1 | i |
| CCc1nc(N2CCN(Cc3ccc4c(c3)OCO4)CC2)c2oc3ccccc3c2n1 | i |
| CCOC(=O)c1sc(NC(=O)Nc2ccc(Cl)cc2)nc1C | i |
| CCN(CC)S(=O)(=O)c1ccc(Cl)c(C(=O)N2CCc3ccccc32)c1 | 2.0 |
| CCN(CC)C(=O)CSc1nc2ccc(NC(=O)CSc3nnc(COc4ccccc4C)n3C)cc2s1 | 0.8 |
| COc1ccccc1CNC(=O)C1CCN(Cc2nc(-c3cccc(Cl)c3)oc2C)CC1 | i |

5 consecutive records out of the list so far, quoted:
| Structure | H5N1 CPE |
| --- | --- |
| Cc1ccc(CNC(=O)C(Cc2ccccc2)NS(=O)(=O)c2cccs2)cc1 (stereo not drawn) | i |
| CC(C)Oc1ccc(C2C(C#N)=C(N)Oc3c2c(=O)oc2ccccc32)cc1 (stereo not drawn) | 0.1 |
| Cc1ccc2c(c1)nnn2C1CCN(S(=O)(=O)c2ccc(C(=O)NC3CCCC3)cc2)CC1 | i |
| CSc1nc(N)nc(SCC(=O)c2ccccc2)c1C#N | 2.3 |
| Cc1ccc(NC(=O)CCn2nc(C)cc2C)c(C)c1 | 0.5 |

Next part.
| Structure | H5N1 CPE |
| --- | --- |
| O=C1c2ccccc2C(=O)N1c1cccnc1 | i |
| CCC(NC(=O)Nc1nnc(C(F)(F)F)s1)(C(F)(F)F)C(F)(F)F | 2.5 |
| COc1ccc(N(CCC#N)S(=O)(=O)c2ccc(Cl)cc2)cc1 | 0.8 |
| COc1ccc(C2=NOC(C(=O)NC(C)C)C2)cc1 (stereo not drawn) | i |
| CCN(C(=O)c1cc2ccccc2oc1=O)c1cccc(C)c1 | 0.5 |
| CCOC(=O)CN1CC23C=CC(O2)C(C(=O)NC2CCCC2)C3C1=O (stereo not drawn) | i |
| CCOc1cc(-c2noc(N)c2C(=O)OC)cc(OCC)c1OCC | i |
| Cn1c(/N=C/c2cc(Cl)ccc2O)nc2ccccc21 | i |

New compounds follow
| Structure | H5N1 CPE |
| --- | --- |
| CC(=O)Oc1ccc(C)cc1N1C(=O)c2ccc(C(=O)O)cc2C1=O | i |
| C=C(C)COc1ccc(-c2n[nH]c(C)c2-c2ccc(OC)cc2)c(O)c1 | i |
| O=C(CCNS(=O)(=O)c1cccc2nsnc12)NCc1cccs1 | i |
| O=C(Nc1ccc(Cl)cc1)N1CCC(c2nc(-c3ccccc3Cl)no2)CC1 | i |
| Cc1ccc2nc(C)cc(NCCO)c2c1 | i |
| Cc1ccc(Cl)cc1N1CCN(C(=O)C2CCCN(S(=O)(=O)c3cnc[nH]3)C2)CC1 (stereo not drawn) | 0.3 |
| COC(=O)c1c(C(=O)OC)c2n(c1C)CCC2 | i |
| COc1cc(C2CC(=O)C=C(O)C2)cc(OC)c1OC (stereo not drawn) | 1.8 |

Another view of some results above.
Cc1ccc(Cl)cc1N1CCN(C(=O)C2CCCN(S(=O)(=O)c3cnc[nH]3)C2)CC1 (stereo not drawn)
  H5N1 CPE = 0.3
COC(=O)c1c(C(=O)OC)c2n(c1C)CCC2
  H5N1 CPE = i
CC(=O)Oc1ccc(C)cc1N1C(=O)c2ccc(C(=O)O)cc2C1=O
  H5N1 CPE = i
Cc1ccc2nc(C)cc(NCCO)c2c1
  H5N1 CPE = i

Additional records:
| Structure | H5N1 CPE |
| --- | --- |
| COCCn1nnnc1CN1CCN2CCCC2C1 (stereo not drawn) | i |
| CNC(=O)COc1ccccc1C(=O)Nc1ccc2c(c1)oc1ccccc12 | i |
| Cc1ccc(S(=O)(=O)C/N=C(/NC(=S)N(c2ccccc2)c2ccccc2)c2ccccc2)cc1 | 0.7 |
| O=C(COc1ccccc1)N(Cc1cc2ccccc2[nH]c1=O)CC1CCCO1 (stereo not drawn) | 0.2 |
| CC1(C)OC(=O)N(Cc2ccco2)C1(C)O (stereo not drawn) | 0.4 |
| CCN1CCCC1CNc1ncnc2c1[nH]c1ccc(Cl)cc12 (stereo not drawn) | i |
| Cc1cc(Cl)ccc1Oc1nc(-c2ccc(F)cc2)ccc1C#N | 1.4 |
| CCC(C)[C@H](NC(=O)OC(C)(C)C)C(=O)N/N=C/c1ccc2nccnc2c1 (stereo partly drawn) | i |

Next part:
SMILES | H5N1 CPE
O=C(CCNC(=O)Cn1cnc2ccccc2c1=O)NCCC1=CCCCC1 | 0.6
O=C(O)c1ccc(COCC(F)(F)F)cc1 | i
N#Cc1ccc(Nc2ccccc2)c(N)c1 | i
COc1cc(NC(=O)CCc2ccccc2)c(C(=O)O)cc1OC | 0.6
O=C(CSc1ncn[nH]1)Nc1ccc(S(=O)(=O)N2CCCC2)cc1 | 2.8
CCOC(=O)c1c(NC(=O)CNCC(O)CO)sc(C)c1C (stereo not drawn) | i
COc1ccc(OC)c(NC(=O)CN(c2ccc(C)cc2)S(=O)(=O)c2c(C)noc2C)c1 | 0.1
CCC1(CC)NC(=O)N(CC(=O)OCC(=O)Nc2ccc(C(F)(F)F)cc2)C1=O | i
O=C(O/N=C\c1ccc(N2CCCCC2)c([N+](=O)[O-])c1)c1c(F)cccc1F | 0.3
CN1C(=O)c2ccc(NC(=O)C3CCCCC3)cc2C1=O | i
O=c1[nH]c2cc3c(cc2cc1CN(Cc1cccnc1)Cc1nnnn1Cc1ccco1)OCCO3 | 2.9
COc1ccc(N2CCN(C(=O)Cn3nnc(-c4ccc(OC)c(OC)c4)n3)CC2)cc1 | 0.6
CN(CC(=O)NC1CCCCC1)S(=O)(=O)c1cccc2nsnc12 | i
C=CCNS(=O)(=O)c1sccc1/C=N/O | i
CN(C)c1ccc(C=NCC2(O)CCOC(C)(C)C2)cc1 (stereo not drawn) | 0.3

New compounds follow
SMILES | H5N1 CPE
O=C(c1cnc(-c2ccccc2)s1)c1ccc(Cl)cc1Cl | i
O=C(CCc1ccc(S(=O)(=O)NC2CCCCC2)cc1)Nc1ccccc1 | 0.1
CCOP(=O)(C#CC(C)(C)C)C(C)(O)c1ccccc1 (stereo not drawn) | i
CC(C)N1C(=O)C2C(C(=O)NC3CCCCC3)C3C=CC2(O3)C1C(=O)NC1CCCCC1 (stereo not drawn) | 1.1
CC1(C)CC2(CCO1)OC(=O)CC2C(=O)NCc1ccccc1 (stereo not drawn) | i
C=CCOc1nc2c(c(=O)n(C)c(=O)n2C)n1Cc1ccccc1Cl | 0.8
CCN1CCN(C(=O)Nc2ccc(Cc3ccc(NC(=O)N4CCN(CC)CC4)cc3)cc2)CC1 | 0.3
O=C(Nc1ccc(C(F)(F)F)cc1)C1CC(=O)N(c2ccc3c(c2)OCCO3)C1 (stereo not drawn) | i
CN1CCN(c2ccc([N+](=O)[O-])c3cccnc23)CC1 | 0.2
C/C=C/COC(=O)c1[nH]c2c(c1C)C(=O)CC(c1ccc(N(C)C)cc1)C2 (stereo not drawn) | i
c1ccc(-c2c[nH]c3[n+]2CCCCC3)cc1 | 2.1
Cc1cc(OCC(=O)Nc2ccc3c(c2)OCCO3)cc(C)c1Cl | i
CCOc1cc(-c2nc(-c3ccccc3)c(-c3cc([N+](=O)[O-])ccc3C)[nH]2)ccc1O | 0.8
O=C(NCCN1CCCC1)c1ccc(CS(=O)(=O)c2c(Cl)cccc2Cl)o1 | 1.0
COCc1nnc(NC(=O)C(C)C)s1 | 0.3

Carrying on.
SMILES | H5N1 CPE
O=C(CSc1nnc(CNC(=O)c2ccccc2F)o1)NCCc1ccccc1 | i
O=S(=O)(c1ccccc1)N1C2CCC1CC(O)(c1cccnc1)C2 (stereo not drawn) | 0.1
CC(=O)c1cc(F)c(N2CCN(C(=O)Cc3ccccc3)CC2)cc1C | 4.0
CN(C)c1oc(-c2ccccc2)nc1C#N | 0.9
CCN(CC)Cc1c(C(=O)OC)nnn1-c1nonc1N | i
O=C(Cn1ncc2c(=O)oc3ccccc3c21)N1CCCN(Cc2ccccc2F)C1 | 0.9
O=C(NCc1ccccc1)c1cccc(S(=O)(=O)N2CCOCC2)c1 | i
CCC(c1nnnn1C(C)(C)CC)N(CCCO)Cc1cc2cc(C)cc(C)c2[nH]c1=O (stereo not drawn) | 1.6
Cc1cc(C)n2cc(CSc3nnc(-c4ccccc4)o3)nc2n1 | 1.3
CCCCC(CC)CN1C(=O)/C(=C/c2ccncc2)SC1=S (stereo not drawn) | 4.3
CC(C)=CCCC1=CCC(/C(C)=N/NC(N)=O)CC1 (stereo not drawn) | 1.5
COc1ccc2[nH]c(C(=O)O)c(CCC(=O)O)c2c1 | 0.3
CCC(c1nnnn1Cc1cccs1)N1CCN(c2nc3ccccc3s2)CC1 (stereo not drawn) | 1.7
Cc1ccc(Nc2ncc3c(n2)CC(c2ccco2)CC3=O)c(C)c1 (stereo not drawn) | i
O=C(CN1CCN(C(=O)c2cccc(F)c2)CC1)Nc1ccccc1F | i

Continued.
SMILES | H5N1 CPE
O=C(Nc1ccc2c(c1)Cc1ccccc1-2)c1ccco1 | i
CC(C)(C)NCc1cccn1-c1sc2c(c1C#N)CCCC2 | 2.2
Cc1ccccc1OCC(=O)N/N=C1\CCOc2c(C)cccc21 | 0.1
O=C(COC(=O)C1CC(=O)N(c2ccccc2)C1)c1ccccc1 (stereo not drawn) | 0.5
COc1ccc(CNC(=S)Nc2cc(C)ccc2C)cc1 | i
O=c1[nH]cnc2scc(C3COc4ccccc4O3)c12 (stereo not drawn) | 3.3
COc1ccc(OC)c(Nc2nc(-c3cccc([N+](=O)[O-])c3)nc3ccccc23)c1 | i
CCOc1ccc(CCNC(=O)c2cc3ccccn3n2)cc1OCC | i
COc1ccc(/C=C(/NC(=O)c2ccc(C)cc2)c2nc3ccccc3[nH]2)cc1OC | i
Cc1nc2ccc(F)cc2cc1C(=O)NCc1ccco1 | 6.9
O=C1CCCC2=C1C(c1cn(-c3ccccc3)nc1-c1cccs1)c1c([nH]c(=O)[nH]c1=O)N2 (stereo not drawn) | i
COCc1cc(=O)n2c([nH]c3ccccc32)c1C#N | 0.5
Cc1cc2n(n1)C(c1sccc1C)Nc1ccccc1-2 (stereo not drawn) | i
O=C1C2C3C=CC(O3)C2C(=O)N1CC(O)c1ccccc1 (stereo not drawn) | i
COC(=O)c1ccc(Cc2ccccc2)o1 | 0.0

Carrying on:
SMILES | H5N1 CPE
CN1/C(=C\C(=O)COc2ccc3c(c2)OCO3)C(C)(C)c2ccccc21 | 0.0
CCOC(=O)Cc1cc(=O)n2[nH]c(-c3ccc(C)cc3)cc2n1 | 0.8
COC(=O)C1=CN(C2CC2)C=C(C(=O)OC)C1c1ccccc1OC | i
CCOC(=O)Cc1csc(NC(=O)CSc2nnc(-c3ccc(C)cc3)o2)n1 | i
CCNC(=S)NNC(=O)c1cccs1 | 0.9
Cc1ccc(CSCC(=O)N2CCN(c3ccc(F)cc3)CC2)cc1 | 0.2

A portion of the library; count on the stated rates, not on these rows.
